Source: PubChem (National Center for Advancing Translational Sciences (NCATS))
Menin-MLL FL inh – displaces fluorescein MLL peptide from human menin. Fluorescence polarization, fluorescein-MLL peptide displacement from menin. FP activity change, % at 61.4 µM. 290,000 tested, under 10 active; inconclusive = falling polarisation curve, or a change in total fluorescence; inactive = total fluorescence flat and polarisation flat or rising; no compound was filed as active; the % refers to the polarisation; negative = inhibition;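 also: % of control where 0% means no effect; inhibitors lower the polarisation; unlabelled MLL peptide was the positive control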
TRPV1 PAM – potentiators of human vanilloid receptor 1 (TRPV1). Q8NER1. TRPV1-expressing cells, Fluo-8 calcium influx, capsaicin EC20 potentiation; host cell line not named in the record; control for the full effect not named in the record. potentiation, % at 8.33 µM. 320,000 compounds, 0.02% hits. AID 540277; active means potentiation above 80%; inconclusive means 30% to 80%; inactive means below 30%; also: 0% is about no effect
Target sequence (Q8NER1 whole entry, looked up): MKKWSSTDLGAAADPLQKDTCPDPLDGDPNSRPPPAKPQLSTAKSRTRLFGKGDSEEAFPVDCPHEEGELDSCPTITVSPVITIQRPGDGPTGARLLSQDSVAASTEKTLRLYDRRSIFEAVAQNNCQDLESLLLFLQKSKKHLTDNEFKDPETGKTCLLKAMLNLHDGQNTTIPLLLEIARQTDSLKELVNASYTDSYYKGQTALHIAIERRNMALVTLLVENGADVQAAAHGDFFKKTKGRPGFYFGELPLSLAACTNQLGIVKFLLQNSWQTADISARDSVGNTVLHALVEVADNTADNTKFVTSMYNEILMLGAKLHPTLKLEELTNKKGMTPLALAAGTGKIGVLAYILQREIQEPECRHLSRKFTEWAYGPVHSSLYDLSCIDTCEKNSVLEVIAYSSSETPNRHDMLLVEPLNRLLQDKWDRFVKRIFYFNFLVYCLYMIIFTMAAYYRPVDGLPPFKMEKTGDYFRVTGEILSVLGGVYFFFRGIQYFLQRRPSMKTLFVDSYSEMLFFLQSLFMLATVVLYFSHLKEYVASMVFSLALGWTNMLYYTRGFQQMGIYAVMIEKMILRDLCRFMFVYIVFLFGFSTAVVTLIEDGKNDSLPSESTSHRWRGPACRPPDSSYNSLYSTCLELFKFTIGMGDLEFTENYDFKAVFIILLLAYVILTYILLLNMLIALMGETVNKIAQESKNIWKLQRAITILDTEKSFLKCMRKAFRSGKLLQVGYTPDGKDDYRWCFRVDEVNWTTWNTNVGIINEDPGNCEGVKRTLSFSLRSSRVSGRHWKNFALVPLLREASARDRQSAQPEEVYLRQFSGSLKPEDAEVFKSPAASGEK
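Fluo-8 calcium influx in TRPV1-expressing cells, kinetic read (ex 480/em 520 nm). Compound added and read 3 min for agonist activity, followed by capsaicin at EC20 final and 2 min further read for enhancement.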
gsp antag – antagonists of gsp mutant (McCune-Albright syndrome); gsp-mutant cells, cAMP HTRF, 30 min; control for the full effect not named in the record; 340,000 compounds, 0.4% hits; Potency, µM (top dose mostly 76.9 µM), for inactives: top-dose activity change, negative = inhibition, actives largely listed as inhibitors; active = falling curve of any shape with a large fitted effect; inconclusive = falling curve, mostly with a smaller effect; inactive = flat or rising curve; cell line not stated here;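 also: intracellular cAMP measured with PDE inhibitor Ro 20-1724 present during compound exposure; potency is read from the fitted curve at half-maximal effect; % is scaled to controls: 0 for no effect and ±100 for the full control effect; nearly all actives have a fitted effect of over 65% in size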
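G418-selected cells were plated in DMEM/10% FBS for 16-24 h at 37C, then treated with compounds plus the PDE inhibitor […] (300 uM solution added) for 30 min at 37C. Intracellular cAMP was measured by HTRF after 30 min lysis at room temperature.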
CtBP-E1A blk – CtBP/E1A binding inhibition; AlphaScreen GST-E1A/His-CtBP binding, 1536-well; stronger effect = lower value; control for the full effect not named in the record; 340,000 compounds, 0.49% hits; activity change, % (concentration not given with the values); in the data active means activity change below about -65%; inconclusive means about -30% to -65%; inactive means above about -30%; also: % is scaled to controls: 0 for no effect and ±100 for the full control effect
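Protein mix (5X: 125 nM each GST-E1A, His-CtBP) was incubated with pinned compound 2 h at 37 deg C in dark, in 50 mM Tris pH 8.0 buffer with 300 mM NaCl. Glutathione donor and nickel acceptor beads followed; AlphaScreen signal read after 1 h.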
gsp ag – activates gsp, the McCune-Albright syndrome mutation | Potency, µM (series often up to 76.9 µM), for inactives: top-dose activation (cAMP increase), actives largely listed as activators | AID 624287 | gsp mutant cells, cAMP HTRF, 30 min; control for the full effect not named in the record | 340,000 compounds, 0.13% hits; active = well fitted activation curve with a large enough effect; inconclusive = small, poorly fitted or top-dose-only effect, or another doubt; inactive = no such curve, though single readings can be large or run the other way; cell line not stated here;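 also: phosphodiesterase inhibitor Ro 20-1724 added with compounds to block cAMP breakdown; potency is read from the fitted curve at half-maximal effect; nearly all actives have a fitted effect of over 60% in size; about a fifth of the inactives were tested at one dose only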
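Cells stably selected in G418 were plated at 2000/well, grown 16-24 hr, then given compounds in DMSO with the PDE inhibitor […] (300 uM solution added) for 30 min at 37C; cAMP was read by HTRF.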
ClpP mod – qHTS Assay for Activators of ClpP; ATP-dependent Clp protease proteolytic subunit (Bacillus subtilis (strain 168)), P80244; AID 651965, 2013; 340,000 compounds, 1.9% hits; Potency, µM (titrated, usually from 57.5 µM), without a hit: at the highest dose activity change, negative = active; purified B. subtilis ClpP, FRET peptide cleavage, 20 min; active = well fitted falling curve with a large enough effect; inconclusive = small, poorly fitted or top-dose-only effect; inactive = no such curve, though single readings can be large or run the other way; also: potency is read from the fitted curve at half-maximal effect; the source files actives as falling curves though it sought activators and does not explain the sign; nearly all actives have a fitted effect of over 65% in size; many hits overshoot -100%
Target sequence (P80244 whole entry, looked up): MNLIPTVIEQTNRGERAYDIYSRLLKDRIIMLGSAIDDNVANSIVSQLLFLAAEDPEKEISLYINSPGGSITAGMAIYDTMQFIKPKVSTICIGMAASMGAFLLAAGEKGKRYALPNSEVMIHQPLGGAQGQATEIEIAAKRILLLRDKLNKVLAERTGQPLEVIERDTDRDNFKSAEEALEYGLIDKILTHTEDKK
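Purified B. subtilis ClpP, 10 microg/mL final in Tris/HCl pH8 with KCl, BSA, glycerol and Tween-20, cleaved an Abz/nitrotyrosine-quenched decapeptide. Fluorescence (ex 320, em 430) was read at 0 and 20 min at room temperature. Delta was normalized to 5.8 microM ADEP and DMSO/no-enzyme controls.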
Sfp PPTase inh – blocks B. subtilis Sfp PPTase activity; Q9F4F7; AID 1490; Potency, µM, for the others: max response, negative = inhibition, actives largely listed as inhibitors; 310,000 compounds, 3.5% hits; Biochemical Sfp PPTase activity, qHTS; active = well fitted inhibition curve with a large enough effect; inconclusive = small, poorly fitted or top-dose-only effect, or another doubt; inactive = no such curve, though single readings can be large or run the other way;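 also: the enzyme is Sfp with the accession as filed and its product quenches rhodamine fluorescence; potency is read from the fitted curve at half-maximal effect; 0% = enzyme reaction without inhibitor and -100% = no enzyme wells; top concentration of the series not given in the record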
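Fluorescence-quenching assay with 15 nM Sfp, 5 uM rhodamine-CoA and 12.5 uM BHQ-2-labelled ybbR peptide in pH 7.6 Hepes/MgCl2 buffer. Enzyme was pre-incubated with compound for 15 min at room temperature. Rate was taken from the 30-min fluorescence change (525/598 nm).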
* marks the source's active call; other numbers are inactive results; & = joins results of further samples; ! = repeats disagree; [ ] = another dose, or the depositor's remark.

Screening Cc1cc(F)ccc1S(=O)(=O)N1CCCOC1CNC(=O)C(=O)NCCN1CCOCC1 (configuration not stated) returned TRPV1 PAM 4, gsp antag -10%, CtBP-E1A blk 1, gsp ag -2%[15.4 µM], ClpP mod 0.7% and Sfp PPTase inh 6%.
Screening CCOc1ccc2cc(C(=O)NCc3ccccc3)c(=N)oc2c1 returned Menin-MLL FL inh 19, TRPV1 PAM 10, gsp antag -7%, CtBP-E1A blk -3, gsp ag 8% and Sfp PPTase inh -23%.
For Cc1ccc(-c2cc(-c3ccccc3)no2)c(O)c1 the results were Menin-MLL FL inh 0.9, TRPV1 PAM inconclusive, gsp antag 10%, CtBP-E1A blk 3, gsp ag 8%, ClpP mod -0.3% and Sfp PPTase inh 16%.
COc1cc(OC)cc(C(=O)NC2CCN(CCCOc3ccccc3)CC2)c1 was read as Menin-MLL FL inh -2.5, TRPV1 PAM 5, gsp antag -1%, CtBP-E1A blk -6, gsp ag -8%, ClpP mod -4.8% and Sfp PPTase inh 4%.
Cc1ccc(-n2nc(-c3ccccc3)cc2Nc2ccccc2N)cc1 was read as Menin-MLL FL inh 2.4, TRPV1 PAM -5, gsp antag 0%, CtBP-E1A blk 6, gsp ag -5%, ClpP mod 0.4% and Sfp PPTase inh -3%.
CC1=NN(c2cccc(Cl)c2)C(=O)C1 was read as Menin-MLL FL inh -6.2, TRPV1 PAM -1, gsp antag inconclusive, CtBP-E1A blk 0, gsp ag 17% and Sfp PPTase inh 5%.
`Cc1ccc(NC(=S)c2ccncc2)c(C)c1` gave Menin-MLL FL inh -11, TRPV1 PAM -17, gsp antag inconclusive, gsp ag -33%[inhibitor], ClpP mod 1.0% and Sfp PPTase inh 19%.
For CC(=O)Oc1ccc(NC(=O)C2CCCCC2)c(C(=O)O)c1 the results were Menin-MLL FL inh 1.7, TRPV1 PAM 7, gsp antag -1%, CtBP-E1A blk 1, gsp ag -37%[inhibitor], ClpP mod 28µM* and Sfp PPTase inh 1%.
COC(C(=O)N/N=C(\C)c1ccc(O)cc1)c1ccccc1 (configuration not stated) was read as Menin-MLL FL inh -4.0, TRPV1 PAM 11, gsp antag 5%, CtBP-E1A blk 2, gsp ag 0%, ClpP mod 1.9% and Sfp PPTase inh -2%.
For C[c-]1[c-](C)[c-](C)[c-](C)[c-]1C.[Fe].c1cc2nccc(N3CCCC3)[c-]2c1 (configuration not stated) the results were TRPV1 PAM -15&-26, gsp antag -5%&2%, CtBP-E1A blk -6&-14, gsp ag 7%, ClpP mod -0.9%&-2.2% and Sfp PPTase inh 89µM*!.
`CCCOC(c1ccccc1)(c1ccccc1)C(Oc1nc(C)cc(C)n1)C(=O)O` (configuration not stated) gave Menin-MLL FL inh 3.9, TRPV1 PAM -13, gsp antag 4%, CtBP-E1A blk 4, gsp ag 1%, ClpP mod 0.8% and Sfp PPTase inh 3%.
`NC(=O)c1ccc(NC(=O)CN2CCOCC2)cc1` gave Menin-MLL FL inh 0.9, TRPV1 PAM 2, gsp antag 4%, gsp ag -3%, ClpP mod -1.6% and Sfp PPTase inh 0%.
Cc1cc(OCC(=O)NC2CCN(Cc3ccccc3)CC2)c2c(C)cc(=O)oc2c1 was read as TRPV1 PAM 9, gsp antag -10%, CtBP-E1A blk 0, gsp ag 19%, ClpP mod 3.4% and Sfp PPTase inh 14%.
Screening COc1cc(/C=N/NC(=O)c2cccnc2)ccc1OC(=O)c1ccc([N+](=O)[O-])cc1 returned Menin-MLL FL inh 0.7, TRPV1 PAM 26, gsp antag 5%, CtBP-E1A blk 3, gsp ag -39%, ClpP mod -4.1% and Sfp PPTase inh -20%.
`Cc1cc(C)c(C#N)c(Oc2ccc(F)cc2)n1` gave Menin-MLL FL inh 4.6, TRPV1 PAM 13, gsp antag -19%, CtBP-E1A blk 2, gsp ag 3%, ClpP mod -5.5% and Sfp PPTase inh 12%.
Screening CCOC(=O)c1ccc(-n2c(=O)[nH]c3ccccc3c2=O)cc1 returned Menin-MLL FL inh 4.4, TRPV1 PAM -28, gsp antag 3%, CtBP-E1A blk 6, gsp ag 3%, ClpP mod -8.6% and Sfp PPTase inh 2%.
For O=C(Nc1ccc(F)cc1)N(Cc1cccs1)Cc1cc2cc3c(cc2[nH]c1=O)OCO3 the results were Menin-MLL FL inh 2.1, TRPV1 PAM -5, gsp antag -20%, CtBP-E1A blk -2, gsp ag -81%[inhibitor], ClpP mod 32µM* and Sfp PPTase inh 5%.
CCCCOCCCNC(=O)C1CCCCC1 was read as Menin-MLL FL inh -0.5, TRPV1 PAM -1, gsp antag -5%, CtBP-E1A blk 9, gsp ag 1%, ClpP mod -0.5% and Sfp PPTase inh 18%.
Screening COc1cc(/C=C2\SC(=N)N(c3ccc(F)cc3)C2=O)ccc1O returned Menin-MLL FL inh inconclusive, TRPV1 PAM 13, gsp antag -14%, CtBP-E1A blk -7, gsp ag 31% and Sfp PPTase inh 5%.
C=CCNc1nc(N)c([N+](=O)[O-])c(NCc2ccccc2)n1 was read as Menin-MLL FL inh 5.8, TRPV1 PAM -6, gsp antag 13%, CtBP-E1A blk -7, gsp ag 12% and Sfp PPTase inh 19%.
`CCCOc1ccc(OCCOCCN2CCc3ccccc3C2)cc1` gave Menin-MLL FL inh -0.8, TRPV1 PAM inconclusive, gsp antag 3%, CtBP-E1A blk -2, gsp ag 7%, ClpP mod 4.4% and Sfp PPTase inh inconclusive.
For CCOc1ccccc1/C=N/NC(=O)CNC(=O)c1ccc(S(=O)(=O)N2CCOCC2)cc1 the results were Menin-MLL FL inh 0.7, TRPV1 PAM -2, gsp antag -7%, CtBP-E1A blk 3, gsp ag 1%[15.4 µM], ClpP mod -2.2% and Sfp PPTase inh 10%.
O=C(N/N=C/c1cc2c(cc1Cl)OCO2)c1cccc(Br)c1 was read as Menin-MLL FL inh 3.7, TRPV1 PAM 2, gsp antag -10%, CtBP-E1A blk -13, gsp ag 23%, ClpP mod -17% and Sfp PPTase inh 3%.
`Cc1nc2scc(C)n2c(=O)c1S(=O)(=O)NC(C)c1ccccc1` (configuration not stated) gave Menin-MLL FL inh 5.6, TRPV1 PAM 7, gsp antag 5%, CtBP-E1A blk -1, gsp ag 30%, ClpP mod 3.5% and Sfp PPTase inh 13%.
For CCOc1ccc(/C=C2\SC(=S)N(N3C(=O)C4CC4C3=O)C2=O)cc1 (configuration not stated) the results were Menin-MLL FL inh -1.1, TRPV1 PAM -1, gsp antag -17%, CtBP-E1A blk 7, gsp ag -4%[15.4 µM] and Sfp PPTase inh -27%.
For CCOC(=O)Cc1nnn(CC(=O)OCC)n1 the results were Menin-MLL FL inh 3.1, gsp antag 6%, CtBP-E1A blk -1, gsp ag -25%, ClpP mod -2.4% and Sfp PPTase inh -7%.
For CC(C)NC(=O)C(C)Oc1ccc(S(=O)(=O)NCc2ccc3c(c2)OCO3)cc1 (configuration not stated) the results were Menin-MLL FL inh 0.7, TRPV1 PAM -11, gsp antag 7%, CtBP-E1A blk 5, gsp ag -8% and Sfp PPTase inh 27%.
C[N+]1(C2CCC3CCCC2C3O)CCCCC1 (configuration not stated) was read as Menin-MLL FL inh -0.2, TRPV1 PAM 3, gsp antag 6%, CtBP-E1A blk 10, gsp ag -18% and Sfp PPTase inh -16%.
`CCOC(=O)c1ccc(NC=C2C(=O)OC3(CCCCC3)OC2=O)cc1` gave Menin-MLL FL inh 0.0, TRPV1 PAM -3, gsp antag -15%, CtBP-E1A blk 2, gsp ag -59%, ClpP mod 4.4% and Sfp PPTase inh 1%.
Screening Cc1cnc(C(=O)OC(C(=O)c2c[nH]c3ccccc23)c2ccccc2)cn1 (configuration not stated) returned TRPV1 PAM 18, gsp antag -5%, CtBP-E1A blk 3, gsp ag -4% and ClpP mod -0.2%.
Screening Cn1cc(CCC(=O)NCCCc2ccccc2)c2ccccc21 returned Menin-MLL FL inh 4.1, TRPV1 PAM -9, gsp antag -2%, CtBP-E1A blk -4, gsp ag -1% and Sfp PPTase inh 3%.
COc1ccccc1N1CCN(C(=O)Nc2ccc(F)c(Cl)c2)CC1 was read as Menin-MLL FL inh 0.2, TRPV1 PAM -6, gsp antag -10%, CtBP-E1A blk 3, gsp ag 2%[15.4 µM] and Sfp PPTase inh 13%.
Screening O=C(CCC(=O)N/N=C/c1ccc(Br)o1)N/N=C/c1ccc(Br)o1 returned Menin-MLL FL inh -2.3, TRPV1 PAM -12, gsp antag 7%, CtBP-E1A blk 0, gsp ag -18% and Sfp PPTase inh 3%.
For COc1ccc(N(CC(=O)NCCSc2ccccc2)S(C)(=O)=O)cc1 the results were Menin-MLL FL inh -1.2, TRPV1 PAM 3, gsp antag 16%, CtBP-E1A blk 7, gsp ag 22% and Sfp PPTase inh 14%.
Screening N#C/C(C(=O)c1ccccc1)=C1/CCCCCN1 returned Menin-MLL FL inh -3.1, TRPV1 PAM 4, gsp antag 2%, CtBP-E1A blk -1, gsp ag -20%, ClpP mod -0.9% and Sfp PPTase inh 6%.
`CCn1cc(CN2CCC(n3nccc3NC(=O)CCc3ccccc3)CC2)cn1` gave TRPV1 PAM 1, gsp antag 6%, CtBP-E1A blk 0, gsp ag 17%[15.4 µM], ClpP mod 1.1% and Sfp PPTase inh 13%.
`C=C1CC[C@@H]2[C@](C)(CCC[C@@]2(C)/C=C/[C@@H](O)C(C)(C)O)[C@H]1CC(=O)NCCS(=O)(=O)O` gave gsp antag 6%, CtBP-E1A blk 8 and ClpP mod -1.1%.
C=CC[C@@H](CC(=O)N[C@@H](CO)Cc1ccccc1)C(=O)NC[C@@H](OC(=O)[C@@H](CC=C)Cc1ccc(F)cc1)c1ccccc1 was read as gsp antag 3%, gsp ag -53%[inhibitor] and ClpP mod 1.7%.
